Mtb growth: Confirmatory growth inhibition assay against Mycobacterium tuberculosis H37Rv, potency (AID 1949). most inactive calls were filed without a number and no value below 0 was filed. inhibition, % at 10 µg/mL, or IC50 in µg/mL where a hit was titrated. hit rate 1.6% among 100,000;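 active = confirmed in a dose series; inconclusive = about 50% or more but not retested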;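 also: bacteria grown 7 days with compound before Alamar blue readout; 0% = untreated bacteria and 100% = reference antibiotic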
* marks the source's active call; other numbers are inactive results; i = inactive; ? = inconclusive. Some of the compounds tested. The share of hits here may be higher or lower than overall.

SMILES	Mtb growth
Cc1ccc(-n2c(C)nnc2SCC(=O)Nc2c(C)cccc2C)cc1C	i
CCCc1ccc(OCC(=O)Nc2ccc(CC#N)cc2)cc1	16.1%
COC(=O)c1ccc(OCC(O)CN2CCC(C)CC2)cc1 (stereo not given)	i
COc1ccc(OC)c(N(CC(=O)N2CCOCC2)S(=O)(=O)c2ccccc2)c1	2.3%
COCC(=O)NCCc1ccc(OC)cc1	i
O=C(Nc1cccc([N+](=O)[O-])c1)Nc1nn(Cc2ccc(Cl)c(Cl)c2)cc1Cl	i
CCOCCCNC(=O)CCCOc1ccc(Cl)cc1Cl	i
COc1ccc(-c2cnc3ccccc3n2)cc1[N+](=O)[O-]	i
O=C(Nc1ccc2c(c1)OCO2)c1c(F)cccc1F	i
Cc1onc(-c2ccccc2Cl)c1-c1nc(-c2ccccc2F)no1	i
CC1CN(c2ccc([N+](=O)[O-])cc2S(=O)(=O)N2CCCCC2)CC(C)O1 (stereo not given)	i
O=C(COc1ccc2ccccc2c1)Nc1cccc(-c2nc3ncccc3o2)c1	i
C/C=C/c1ccc(OCCN2CC(C)CC(C)C2)c(OC)c1 (stereo not given)	2.2%
O=C(CCCN1C(=O)CCC1=O)Nc1ccccc1F	i
CCc1cc(C(=O)Nc2ccccc2)cs1	20.6%
O=C(COc1ccc(C(F)(F)F)cc1[N+](=O)[O-])Nc1ccc(F)cc1	i
O=C(C1COc2ccccc2O1)N(Cc1ccccc1)Cc1ccccc1 (stereo not given)	4.9%
CCOc1ccc(NC(=S)Nc2ccc(C)cn2)cc1	i
COc1ccc(C(=S)N2CCCC2)c2ccccc12	i
Cc1ccc(N(CCCCN2C(=O)c3ccccc3C2=O)C(=O)c2cccc(Br)c2)cc1	i
CCOC(=O)CCn1nc(-c2ccc(C)cc2)c2ccccc2c1=O	i
O=C(Nc1ccc2c(c1)nc1n2CCN(Cc2ccccc2)C1)c1ccc(F)cc1	i
COc1ccccc1C1CC(=O)C2=C(C1)NC(C)=C(C(=O)OCC1CCCO1)C2c1ccc(F)cc1 (stereo not given)	?
CCC(=O)Nc1nc(OC)cc(OC)n1	i
COc1cccc(NC(=S)N2CCN(c3ccc([N+](=O)[O-])cc3)CC2)c1	5.6%
More records
SMILES	Mtb growth
CCOC(=O)c1c(NC(=O)c2c(F)c(F)c(F)c(F)c2F)sc(C(N)=O)c1C	<0.1µg/mL*
Cc1ccc(C2CC(C(F)(F)F)n3ncc(C(=O)Nc4ccccc4C(F)(F)F)c3N2)cc1 (stereo not given)	i
COc1cccc(CO)c1OCC(=O)Nc1ccccc1	1.9%
COc1ccc(C(=O)Nc2ccc3nc(SCC(=O)N4CCOCC4)sc3c2)cc1OC	i
CCn1c(SCC(=O)NCc2ccccc2)nnc1-c1ccc(C)cc1	i
Cc1cccc(OC2CCS(=O)(=O)C2)c1 (stereo not given)	i
O=Cc1ccccc1OCc1ccccc1	i
N#CC1=C(N)N=C(SCc2ccccc2)C(C(N)=O)C12CCCCC2 (stereo not given)	i
C=CCSc1nc(-c2ccc(OC)cc2)c(C#N)c(=O)n1CC=C	27.7%
COc1ccc(CCC(=O)Nc2cc(OC)ccc2OC)cc1	2.2%
COc1ccc(NC(=O)NCc2ccco2)cc1OC	i
COc1cc(-c2nc3cc(Cl)ccc3o2)cc(OC)c1OC	i
CCOC(=O)c1c(NC(=O)CN(c2cccc([N+](=O)[O-])c2)S(C)(=O)=O)sc2c1CCCC2	i
Cc1c(NC(=O)CSc2nnc(Cc3ccccc3)o2)c(=O)n(-c2ccccc2)n1C	i
O=C(c1cccc(I)c1)N1CCN(c2ccccc2F)CC1	i
COc1ccc(Cc2noc(-c3ccc([N+](=O)[O-])cc3)n2)cc1	i
O=C(Nc1ccccc1C(F)(F)F)C(F)(F)F	i
CCOc1ccc(NC(=S)Nc2c(C)n(C)n(-c3ccccc3)c2=O)cc1	i
CC(=O)c1ccc(N2CCN(C(=O)C3CCC3)CC2)cc1	i
CS(=O)(=O)NC(C(=O)O)c1ccccc1 (stereo not given)	2.7%
COc1ccc(C)cc1N(CC(=O)Nc1cccc([N+](=O)[O-])c1)S(C)(=O)=O	i
CC1CCCCC1NC(=O)CSc1nnc(-c2ccc(Cl)cc2)n1C (stereo not given)	i
CCOc1cc(CN2CCN(C(=O)c3cccc(Cl)c3)CC2)ccc1OC	i
COCCN1C(=O)C(O)=C(C(=O)c2ccc(C)o2)C1c1cccc(OC)c1 (stereo not given)	0.1%
C=CCn1c(SCC(=O)Nc2ccc([N+](=O)[O-])cc2)nnc1-c1ccco1	i
(listing goes on)
SMILES	Mtb growth
COc1cccc(OCC(O)Cn2c(Cc3ccccc3)nc3ccccc32)c1 (stereo not given)	i
COc1ccc([N+](=O)[O-])cc1NC(=O)c1cc(C)c(C)o1	0.6%
CCOc1ccc(C(=O)Nc2nnn(C)n2)cc1Br	i
CCN(CC)C(=O)c1sc(NC(=O)C2CCCCC2)c(C#N)c1C	i
O=S(=O)(NC1CCCCC1)c1ccc(Oc2ccccc2Cl)cc1	i
O=C(c1ccco1)N1CCN(C(=O)c2ccccc2Oc2ccccc2)CC1	1.0%
COc1ccc(C(NC(=O)CCc2ccccc2)c2ccc3cccnc3c2O)cc1 (stereo not given)	i
COc1ccc(S(=O)(=O)N/N=C/c2ccc(OC(=O)Nc3ccccc3)c(OC)c2)cc1	i
COC(=O)c1ccccc1NC(=O)C(=O)NCc1ccncc1	i
CCOC(=O)c1cc(OC(=O)c2cccs2)n(-c2ccccc2)n1	0.8%
CS(=O)(=O)N(CCc1ccccc1)CC(=O)NCc1cccnc1	i
CC(C(O)C12CC3CC(CC(C3)C1)C2)N(C)C (stereo not given)	i
Cc1cc2c(cc1C)CSC(c1cc([N+](=O)[O-])ccc1O)SC2	i
COc1ccc(Cl)cc1-n1c(CCC(=O)O)ccc1-c1ccc(C)cc1	i
CCOC(=O)c1ccccc1NC(=O)CC1Nc2ccccc2NC1=O (stereo not given)	i
COc1ccc(CCNCCC(=O)Nc2c(C)cc(C)cc2C)cc1OC	i
COCc1nnc(NC(=O)COc2ccc(Cl)c(C)c2)s1	i
O=c1cc(Oc2cc(=O)oc3ccccc23)c2ccccc2o1	i
Cc1nc(NCc2ccco2)[nH]c(=O)c1CCC(C)C	1.4%
Cc1ccc(Cl)cc1N1CCN(C(=O)CN(c2cccc(C(F)(F)F)c2)S(C)(=O)=O)CC1	i
S=C(NCc1cccs1)Nc1cccc2ccccc12	i
COC(=O)c1ccccc1NC(=O)CN(c1ccc(OC)cc1)S(=O)(=O)c1ccc(F)cc1	3.9%
CCOc1ccccc1NS(=O)(=O)c1ccc(Br)s1	i
Cc1ccc(OCCN2CCN(c3ncnc4sc(C)c(C)c34)CC2)cc1	4.5%
Cc1ccc(C)c(NC(=S)NCCc2ccc(F)cc2)c1	?

The final 3 compounds of the part before come first, to join the parts:
SMILES	Mtb growth
CCOc1ccccc1NS(=O)(=O)c1ccc(Br)s1	i
Cc1ccc(OCCN2CCN(c3ncnc4sc(C)c(C)c34)CC2)cc1	4.5%
Cc1ccc(C)c(NC(=S)NCCc2ccc(F)cc2)c1	?
COc1ccc([N+](=O)[O-])cc1COc1ccccc1C(=O)Nc1ccc(C)c(Cl)c1	3.1%
Cc1cccc(OC(C)C(=O)Nc2cccc(F)c2)c1 (stereo not given)	i
C=CCNC(=O)c1c(NC(=O)c2cccs2)sc2c1CCCC2	i
Cc1c(CCOC(=O)c2ccccc2)sc[n+]1CC(=O)c1ccccc1	i
O=C(Nc1ccccc1C(=O)N1CCN(Cc2ccccc2)CC1)c1ccccc1Cl	i
CCOc1cc(C(=O)O)cc(Br)c1OCC(N)=O	i
Cc1ccccc1OCC(=O)Nc1cccc(-c2nnc(-c3ccccc3)o2)c1	i
COc1cc(/C=C(/C#N)C(N)=S)c(Br)cc1O	i
COc1ccc(-c2cc(C(F)F)n3ncc(C(=O)Nc4cccc(Cl)c4C)c3n2)cc1	i
COc1ccccc1N1CCN(C(=O)c2cc(-c3ccc(C)o3)nc3ccccc23)CC1	?
CC(Oc1cccc(Br)c1)C(=O)Nc1ccc2c(c1)OCO2 (stereo not given)	0.2%
OC(c1ccccc1)c1nnc(SCc2cccc(F)c2)n1-c1ccccc1 (stereo not given)	i
CCCc1ccc(C(=O)N2CCOCC2)cc1	1.5%
COc1cc(C2c3c(oc4ccc(F)cc4c3=O)C(=O)N2Cc2ccccc2Cl)cc(Br)c1O (stereo not given)	i
Cc1ccccc1NC(=O)COc1ccc(S(=O)(=O)NC2CCCCC2)cc1	i
COCCNS(=O)(=O)c1ccc(C(C)(C)C)cc1	i
CCc1nc(SCc2ccc(OCCC(C)C)cc2)n[nH]1	21.1%
Cc1cccc(-c2nnn(CC(=O)NC(C)(C)C)n2)c1	i
OC1(c2cccc(C(F)(F)F)c2)CCN(C(=S)NCCc2ccccc2)CC1	4.1%
CC(C)C(=O)NC(c1ccc(C(C)C)cc1)c1ccc2ccccc2c1O (stereo not given)	i
CCC(Oc1ccccc1)C(=O)Nc1sc(C)c(C)c1C(=O)OC(C)C (stereo not given)	i
CCC(NC(=O)c1ccc2c(c1)OCCO2)C(=O)O (stereo not given)	i
CC(=O)Oc1ccc2c(C)c(Cc3ccccc3)c(=O)oc2c1OC(C)=O	i
CCc1cccc(C)c1NC(=O)CSc1nc2ccccc2c(=O)n1-c1cccc2ccccc12	i
O=C(CCN1C(=O)c2cccc3cccc(c23)C1=O)NC1CCS(=O)(=O)C1 (stereo not given)	1.5%
Further structures
SMILES	Mtb growth
COC(=O)c1cc(NC(=O)CN2C(=O)c3ccccc3C2=O)cc(C(=O)OC)c1	i
Cc1sc2ncnc(SCc3ccc(F)cc3)c2c1C	1.1%
CCOc1ccccc1NC(=O)c1ccc(NC(=O)c2ccccc2)cc1	0.4%
C=CCOc1c(Br)cc(CNc2ccc(NC(=O)C(C)C)c(OC)c2)cc1OC	i
S=C(Nc1ccc2nsnc2c1)N1CCSCC1	i
C=CCc1cc(/C=C2\C(=O)NC(=O)N(c3ccccc3CC)C2=O)cc(OCC)c1O	0.2%
O=C(Nc1ccc(S(=O)(=O)Nc2ccc(Cl)c(C(F)(F)F)c2)cc1)c1ccco1	i
CSc1nc(NC(C)(C)C)nc(Oc2ccc(=O)[nH]n2)n1	0.3%
CCOc1c(C)cc(-c2ncccc2O)cc1C	10.1%
CCC(=O)c1ccccc1OCCCn1cncn1	i
Cc1c(OC(=O)c2cccs2)ccc2c3c(c(=O)oc12)CCCC3	46.8%
CCOC(=O)C1=CN(Cc2ccc(F)cc2)C=C(C(=O)OCC)C1c1ccc(OC)c(O)c1	i
COc1ccc(CNc2ccc3c(c2)ncn3-c2ccccc2)cc1OC	8.63µg/mL*
O=C(CSc1ccccn1)Nc1nc2ccccc2s1	i
CCCCOc1ccc(NC(=O)CCOc2ccc(C)cc2)cc1	19.4%
CCCCOc1ccc(C(=O)NC(=S)Nc2ccccc2N2CCN(C(C)=O)CC2)cc1	i
COC(=O)COc1ccc(S(=O)(=O)Nc2ccc(F)cc2F)cc1	i
CCN(CC)C(=O)c1sc(NC(=O)c2ccc3c(c2)OCO3)c(C(=O)OC(C)C)c1C	i
S=C(Nc1ccccc1)Nc1ccc(Cl)cc1Cl	i
CS(=O)(=O)N(Cc1ccc(Cl)cc1)c1ccc(C(=O)NC2CCCCCC2)cc1	i
COC(=O)C1=C(C)NC2=C(C(=O)CC(c3ccccc3OC)C2)C1c1cccc(OC)c1OC (stereo not given)	i
C=CCNc1nc(-c2ccccc2)c(C(=O)Nc2ccc3c(c2)OCCO3)s1	i
O=C(Cc1ccc(Cl)cc1)Nc1ccc(O)cc1C(=O)O	i
COc1ccc(C)cc1NC(=O)c1ccc(OCC(=O)Nc2ccccc2C(F)(F)F)cc1	3.3%
CCc1c(C)nc(SCC(=O)N(CC)CC)c(C#N)c1C	i
Remaining list, next part.
SMILES	Mtb growth
C=CCN(CC=C)CCOc1ccc(C)cc1C	i
COc1cc(/C=C2/C(=O)NN(c3cccc(C)c3)C2=O)ccc1OC(=O)c1ccco1	i
N#Cc1nc(-c2ccccc2Cl)oc1NCCN1CCOCC1	i
COc1ccc(OC)c(C2NC(=S)NC(C)=C2C(=O)Nc2cc(Cl)ccc2OC)c1 (stereo not given)	i
CCOCCC(=O)N1CCCCC1CC (stereo not given)	i
CCOC(=O)COc1ccc(S(=O)(=O)NCC2CCCO2)cc1 (stereo not given)	i
NC(=O)CSc1ccc2ccccc2c1	i
CN(c1ccc(C(=O)NCc2ccc(Cl)cc2)cc1)S(C)(=O)=O	i
CCCCc1ccc(-n2nc3cc(Cl)c(NC(=S)NC(C)=O)cc3n2)cc1	1.5%
O=C(O)c1ccc(COc2ccc3c(c2)CCC3)o1	i
COc1ccc(Nc2oc(-c3ccccc3C)nc2C#N)cc1	i
CCC(CC)c1nnc(NS(=O)(=O)Cc2ccccc2)s1	i
COc1cc(/C=C/[N+](=O)[O-])ccc1OC(=O)c1ccco1	22.6µg/mL*

Entries above that contain an aryl thioether with sulfur outside any ring, in the order listed:
SMILES	Mtb growth
Cc1ccc(-n2c(C)nnc2SCC(=O)Nc2c(C)cccc2C)cc1C	i
COc1ccc(C(=O)Nc2ccc3nc(SCC(=O)N4CCOCC4)sc3c2)cc1OC	i
CCn1c(SCC(=O)NCc2ccccc2)nnc1-c1ccc(C)cc1	i
C=CCSc1nc(-c2ccc(OC)cc2)c(C#N)c(=O)n1CC=C	27.7%
Cc1c(NC(=O)CSc2nnc(Cc3ccccc3)o2)c(=O)n(-c2ccccc2)n1C	i
CC1CCCCC1NC(=O)CSc1nnc(-c2ccc(Cl)cc2)n1C (stereo not given)	i
C=CCn1c(SCC(=O)Nc2ccc([N+](=O)[O-])cc2)nnc1-c1ccco1	i
OC(c1ccccc1)c1nnc(SCc2cccc(F)c2)n1-c1ccccc1 (stereo not given)	i
CCc1nc(SCc2ccc(OCCC(C)C)cc2)n[nH]1	21.1%
CCc1cccc(C)c1NC(=O)CSc1nc2ccccc2c(=O)n1-c1cccc2ccccc12	i
Cc1sc2ncnc(SCc3ccc(F)cc3)c2c1C	1.1%
CSc1nc(NC(C)(C)C)nc(Oc2ccc(=O)[nH]n2)n1	0.3%
O=C(CSc1ccccn1)Nc1nc2ccccc2s1	i
CCc1c(C)nc(SCC(=O)N(CC)CC)c(C#N)c1C	i
NC(=O)CSc1ccc2ccccc2c1	i

Screens from PubChem.
